From PubChem BioAssay
D2 antagonist = antagonizes the human D2 dopamine receptor. HEK293 TREx D2 cells, calcium flux, dopamine EC80. inhibition, % at 10 µM. 2% of 340,000 active; in the data active = inhibition above about 30%; note: 0% is about no effect
Target sequence (P14416 whole entry, looked up): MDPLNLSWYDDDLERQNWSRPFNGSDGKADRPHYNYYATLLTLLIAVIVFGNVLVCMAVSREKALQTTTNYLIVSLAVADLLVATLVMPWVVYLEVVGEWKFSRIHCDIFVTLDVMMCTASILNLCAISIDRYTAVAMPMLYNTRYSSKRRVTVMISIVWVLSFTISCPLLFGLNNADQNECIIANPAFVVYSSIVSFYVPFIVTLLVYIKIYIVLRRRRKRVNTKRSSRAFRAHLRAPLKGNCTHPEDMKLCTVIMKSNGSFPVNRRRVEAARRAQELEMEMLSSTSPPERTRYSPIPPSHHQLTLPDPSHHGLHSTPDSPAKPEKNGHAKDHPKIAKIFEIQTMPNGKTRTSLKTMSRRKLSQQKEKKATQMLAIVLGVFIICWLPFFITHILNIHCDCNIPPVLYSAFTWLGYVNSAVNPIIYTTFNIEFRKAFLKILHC
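Read-out: kinetic calcium fluorescence (1 cycle/s) in inducible HEK293 T-REx D2 cells after an EC80 dopamine addition that followed 180 s compound preincubation. Loss of the dopamine response indicates antagonism.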
D1 potentiator = potentiators of human D1 dopamine receptor | 0.036% of 360,000 active | potentiation, % at 10 µM | AID 504651 | P21728 | HEK293 TREx D1 cells, calcium flux, dopamine EC20 potentiation; in the data active = potentiation above about 30%; note: 0% is about no effect
D2 potentiator = positively modulates the human D2 dopamine receptor allosterically | P14416 | HEK293 T-REx D2, calcium flux, EC20 dopamine potentiation | potentiation, % at 10 µM | 0.34% of 340,000 active | AID 485347;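 active = potentiation over 3 SD above the plate norm, cut at about 30% in these data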; note: 0% is about no effect
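Primary screen. Calcium kinetics in induced HEK293 T-REx D2 cells: compound pre-addition 180 s, EC20 dopamine, 180 s more.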
RXFP1 antag = blocks the human relaxin receptor RXFP1; Q9HBX9; activity change, negative = inhibition, % at 57.5 µM; HEK293-RXFP1, relaxin-stimulated cAMP HTRF, 30 min; hits give low values; 0.59% of 350,000 active; AID 1259400;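 active = activity change of -60% or lower, but not beyond a set lower limit; inconclusive = change between -60% and -40%, or beyond the set limit; inactive = change above -40%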; note: % is set by controls: 0 for no effect and ±100 for the full control effect
D1 antag = blocks dopamine activation of the human D1 receptor; activity change, negative = inhibition, % at 10 µM; HEK293 TREx D1 cells, calcium flux, dopamine EC80; hits give low values; P21728; 3.2% of 360,000 active; in the data active = activity change below about -30%; note: % is set by controls: 0 for no effect and ±100 for the full control effect
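Using tetracycline-induced force-coupled D1 Hek293 cells and a calcium dye, signals were followed for 180 s after compound, then for 180 s after EC80 dopamine, to detect inhibitors.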
D2 ag = agonists of human D2 dopamine receptor | HEK293 T-REx D2 cells, calcium flux agonist mode | P14416 | 0.53% of 340,000 active | activation, % at 2 µM;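 active = activation over 3 SD above normal in the single-dose calcium agonist read, cut at about 30% in these data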; note: 0% is about no effect
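Agonism scored from kinetic calcium signal (1 read/sec, 180 s) following compound pin transfer, after a 10 s baseline. Cells: HEK293 Trex line expressing inducible D2 receptor coupled to calcium, dye-loaded after overnight culture at 30 C.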
Active calls of the source: *; ? = inconclusive; . = no result given; & = joins results of further samples.

A first look (4 entries):
Codes – A = D2 antagonist; B = D1 potentiator; C = D2 potentiator; D = RXFP1 antag; E = D1 antag; F = D2 ag
1: Nc1ccc(Oc2ccc(Cl)cc2)cc1
  A: -12; B: -3; C: -4; D: -20; E: -11; F: 0.6

2: CCOCCCNCC(=O)Nc1ccc(S(=O)(=O)NC(C)CC)cc1 (configuration not stated)
  A: -17; B: -10; C: 11; D: -26; E: -9; F: 1.8

3: COc1cc2c(cc1OC)C(C)=NC1(CCCCC1)C2
  A: 29; B: -1; C: 7; D: 11; E: -17; F: 1.2

4: Oc1cc(O)c2c(c1)O[C@H](c1ccc(O)c(O)c1)[C@H](O)C2
  A: 10; B: 0; C: 3; D: -13; E: 16; F: 0.1

The list itself (from the top)
Codes – A = D2 antagonist; B = D1 potentiator; C = D2 potentiator; D = RXFP1 antag; E = D1 antag; F = D2 ag
1: Nc1ccc(Oc2ccc(Cl)cc2)cc1
  A: -12; B: -3; C: -4; D: -20; E: -11; F: 0.6

2: CCOCCCNCC(=O)Nc1ccc(S(=O)(=O)NC(C)CC)cc1 (configuration not stated)
  A: -17; B: -10; C: 11; D: -26; E: -9; F: 1.8

3: COc1cc2c(cc1OC)C(C)=NC1(CCCCC1)C2
  A: 29; B: -1; C: 7; D: 11; E: -17; F: 1.2

4: Oc1cc(O)c2c(c1)O[C@H](c1ccc(O)c(O)c1)[C@H](O)C2
  A: 10; B: 0; C: 3; D: -13; E: 16; F: 0.1

5: Oc1cccc2cc3cccc(O)c3c(O)c12
  A: 16; B: 0; C: 2; D: .; E: -11; F: 0.1

6: CNC(=O)Oc1ccc2c(c1)[C@]1(C)CCN(C)C1N2C (some centres not stated)
  A: -9; B: -2; C: -6; D: .; E: -3; F: 0.6

7: Cc1cccc(Nc2ccccc2)c1
  A: -4; B: -4; C: -7; D: 3; E: -5; F: 0.0

8: O=C(c1ccccc1)c1ccccc1
  A: -22; B: -2; C: -3; D: -2&-7; E: 11; F: -1.6

9: Clc1cccc(Cl)c1NC1=NCCN1
  A: 7; B: -3; C: 1; D: 17; E: -82*; F: 9.7

10: CC[C@H]1OC(=O)[C@H](C)[C@@H](O[C@H]2C[C@@](C)(OC)[C@@H](O)[C@H](C)O2)[C@H](C)[C@@H](O[C@@H]2O[C@H](C)C[C@H](N(C)C)[C@H]2O)[C@](C)(O)C[C@@H](C)C(=NOCOCCOC)[C@H](C)[C@@H](O)[C@]1(C)O
  A: -14; B: 1; C: 7; D: .; E: -20; F: -0.7

New compounds follow
Codes – A = D2 antagonist; B = D1 potentiator; C = D2 potentiator; D = RXFP1 antag; E = D1 antag; F = D2 ag
11: O=C(O)CCCC[C@@H]1SC[C@@H]2NC(=O)N[C@@H]21
  A: .; B: .; C: .; D: 1; E: .; F: .

12: Cc1ccc(O)c(-n2nc3ccccc3n2)c1
  A: 7; B: -4; C: -16; D: -23&-6; E: -19; F: 1.7

13: CN1CCN(CC(=O)Nc2nc3ccccc3s2)CC1
  A: -12; B: -2; C: -12; D: 5; E: -18; F: 2.9

14: O=C1[C@H](CC[C@H](O)c2ccc(F)cc2)[C@@H](c2ccc(O)cc2)N1c1ccc(F)cc1
  A: -4; B: -2; C: -4; D: ?; E: 4; F: 1.9

15: O=C(O)CP(=O)(O)O
  A: -26; B: -2; C: 7; D: 11; E: -38*; F: -2.1

16: CC1=C(CC(=O)O)c2cc(F)ccc2/C1=C\c1ccc(S(C)=O)cc1 (configuration not stated)
  A: 13; B: -2; C: -7; D: -28; E: -2; F: -0.9

17: N=C(N)c1ccc(/C=C/c2ccc(C(=N)N)cc2O)cc1
  A: 4; B: 2; C: -1; D: -39; E: 3; F: 0.6

18: NC(N)=NC(N)=NCCc1ccccc1
  A: 6; B: -2; C: 12; D: -15; E: 6; F: 1.9

19: CC(=O)OC/C=C(\C)CCC=C(C)C
  A: 0; B: 4; C: 4; D: -1; E: -2; F: -0.2

20: NC(N)=NS(=O)(=O)c1ccc(N)cc1
  A: .; B: -2; C: .; D: -10; E: -75*; F: .

More entries:
Codes – A = D2 antagonist; B = D1 potentiator; C = D2 potentiator; D = RXFP1 antag; E = D1 antag; F = D2 ag
21: Cc1c(N)cccc1[N+](=O)[O-]
  A: -27; B: -5; C: -5; D: .; E: .; F: 0.5

22: Nc1nc(F)nc2c1ncn2[C@@H]1O[C@H](CO)[C@@H](O)[C@@H]1O
  A: -2; B: 6; C: 7; D: 24; E: -17; F: 1.3

23: Cc1ccc(-n2c(C)cc(C3=NNC(=NC4CC4)SC3)c2C)cc1C
  A: .; B: -5; C: .; D: 14; E: -3; F: .

24: c1ccc(-c2ccc(-c3cn4c(n3)CCC4)cc2)cc1
  A: -38; B: -3; C: -6; D: -3; E: -15; F: -0.1

25: COc1c2occc2c(OC)c2c(=O)cc(C)oc12
  A: -50; B: -3; C: -9; D: 1; E: 8; F: 0.9

26: O=C(O)c1cccnc1C(=O)O
  A: -12; B: 2; C: 10; D: .; E: -3; F: -0.4

27: O=C(O)c1ccccn1
  A: -6; B: -2; C: 14; D: -9; E: -1; F: -0.2

28: O=Cc1ccc(Cl)c(Cl)c1
  A: 2; B: 0; C: -2; D: .; E: .; F: 0.2

29: CCCNC(=O)NS(=O)(=O)c1ccc(Cl)cc1
  A: -23; B: -5; C: 16; D: 14; E: -20; F: 0.9

30: OC(CNCC1CCCO1)Cn1c2ccccc2c2ccccc21 (configuration not stated)
  A: 1; B: -4; C: 3; D: -8; E: 1; F: 0.6

At a glance, some entries already given.
Codes – A = D2 antagonist; B = D1 potentiator; C = D2 potentiator; D = RXFP1 antag; E = D1 antag; F = D2 ag
24: c1ccc(-c2ccc(-c3cn4c(n3)CCC4)cc2)cc1
  A: -38; B: -3; C: -6; D: -3; E: -15; F: -0.1

25: COc1c2occc2c(OC)c2c(=O)cc(C)oc12
  A: -50; B: -3; C: -9; D: 1; E: 8; F: 0.9

26: O=C(O)c1cccnc1C(=O)O
  A: -12; B: 2; C: 10; D: .; E: -3; F: -0.4

27: O=C(O)c1ccccn1
  A: -6; B: -2; C: 14; D: -9; E: -1; F: -0.2

28: O=Cc1ccc(Cl)c(Cl)c1
  A: 2; B: 0; C: -2; D: .; E: .; F: 0.2

29: CCCNC(=O)NS(=O)(=O)c1ccc(Cl)cc1
  A: -23; B: -5; C: 16; D: 14; E: -20; F: 0.9

30: OC(CNCC1CCCO1)Cn1c2ccccc2c2ccccc21 (configuration not stated)
  A: 1; B: -4; C: 3; D: -8; E: 1; F: 0.6

(more compounds)
Codes – A = D2 antagonist; B = D1 potentiator; C = D2 potentiator; D = RXFP1 antag; E = D1 antag; F = D2 ag
31: COc1ccc2nc(N)sc2c1
  A: 21; B: -2; C: -5; D: -31; E: -3; F: -0.7

32: NCCc1nc(-c2ccccc2)cs1
  A: -11; B: 6; C: 1; D: 8; E: -1; F: -0.2

33: NNC(=O)c1ccncc1
  A: 4; B: -2; C: -7; D: 26; E: -19; F: 1.4

34: CC(=O)c1ccc([N+](=O)[O-])cc1
  A: 1; B: -6; C: -5; D: .; E: .; F: -0.2

35: CC1=C(C/C=C(\C)CCC[C@H](C)CCC[C@H](C)CCCC(C)C)C(=O)c2ccccc2C1=O
  A: .; B: .; C: .; D: 15; E: .; F: .

36: Cc1cc2nc(N)sc2cc1C
  A: 34*; B: -4; C: 9; D: 5; E: 3; F: -1.1

37: O=C1C=CCCC1
  A: -10; B: -1; C: -2; D: .; E: .; F: 0.6

These rows are one share of the data; the hit share may differ from the screen's.
